# Compound activity: PubChem, several laboratories
# RN4220 kill: kills Staphylococcus aureus RN4220; S. aureus RN4220 growth, OD600, 16 h; inhibition, % (test concentration not listed); actives 0.33% (n = 330,000); AID 1259311;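 active = z-score of -3 or lower and OD600 up to 0.18 on both plates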;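 note: plate controls were untreated cells for no effect and reference antibiotic for full effect; stock transfer was 100 nL into about 80 µL; one replicate is shown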
# BJeLR lethal: BJeLR cell viability loss | actives 0.17% (n = 300,000) | inhibition, % (test concentration not listed) | BJeLR (HRASV12) viability, CellTiter-Glo ATP luminescence, 48 h; reference of the scale not given here | AID 1554;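 active = replicate mean above 50%; inconclusive = above 50% but judged a plate artefact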;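 note: 50 nL library stock added to about 25 µL; numbers are from one replicate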
# Autofluor counter: compound fluorescence in toxin protease inhibitor counterscreen; compound autofluorescence counterscreen, microsphere flow cytometry; active compounds read high; fluorescence intensity (concentration not given with the values); actives 3.1% (n = 360,000);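 active = at least 3 SD above the mean of all compounds, about 16000 in these data; inconclusive = too few beads counted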;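 note: 100 nL of 1 mM stock went into each well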
# PrP UTR inh: inhibition of PrP 5' UTR reporter expression; inhibition, % (concentration not given with the values); actives 0.35% (n = 340,000); cell-based PrP 5' UTR mRNA reporter, plate reader;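 active = every replicate at 50% or more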;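 note: 0 = median of the neutral control wells; tested in H4 reporter cells; numbers are from one replicate; inactives centre near -14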
# Mtb hypoxia rep: inhibitors of hypoxia-regulated fluorescent reporter in Mycobacterium tuberculosis; M. tuberculosis hypoxia-regulated fluorescent reporter, fluorescence; fluorescence inhibition, % (test concentration not listed); actives 0.1% (n = 300,000); AID 1159583;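 active = 35 to 45% if threefold the growth effect, above 45% if 1.5-fold the growth effect; inactive = the rest, general growth blockers included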;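 note: wells of about 50 µL received 100 nL stock; 0% = vehicle wells and 100% = reference inhibitor wells; whole bacteria with a GFP reporter of the hypoxia response; strong numbers were not always called active; many hits fall short of the cut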
# Sa ugtP lethal: kills S. aureus RN4220 lacking UgtP. S. aureus RN4220 ugtP deletion, OD600 growth, 16 h; some inactives read as strong as hits. growth inhibition, % (concentration not given with the values). actives 0.54% (n = 330,000);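 active = z-score under -3 and OD600 up to 0.15 on both plates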;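 note: plate controls were untreated wells for no effect and antibiotic for full effect; wells of about 80 µL received 100 nL stock; the first replicate is given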
# Mtb hypoxia rep growth: also measured in Mtb hypoxia rep; calls as there; growth inhibition, %; measured here: M. tuberculosis growth (absorbance);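 0% = vehicle and 100% = reference antibiotic; read after six days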
# An asterisk follows results filed as active; ? = inconclusive; nt = no result given.
# Second line of a record: BJeLR lethal	Autofluor counter	PrP UTR inh	Mtb hypoxia rep	Sa ugtP lethal	Mtb hypoxia rep growth	RN4220 kill
[1] O=C(Nc1ccccc1)Nc1cccc(Cl)c1
→ -1	11413	nt	5	-23	9	-1.4
[2] CC(OC(=O)Cn1cnc2c1c(=O)n(C)c(=O)n2C)C(=O)Nc1ccc(Cl)cc1 (stereo unspecified)
→ -5	4087	0	5	-6	1	1.3
[3] CCSc1nc2c(c(=O)n1Cc1ccccc1)SC(C)C2 (stereo unspecified)
→ 15	6193	-17	9	7	9	3.3
[4] Fc1ccccc1NC(=S)NCc1ccccc1
→ 5	4235	4	0	0	8	3.1
[5] O=C1CCN(CCc2ccccc2)CCN1[C@H](CSc1ccc(Br)cc1)c1ccccc1
→ -3	3531	-24	nt	nt	nt	nt
[6] CC(=O)c1c(C)[nH]c(C(=O)OCC(=O)Nc2c(C)cccc2C)c1C
→ nt	5159	-18	5	6	-12	1.7
[7] CCC1(c2ccccc2)NC(=O)N(CC(=O)Nc2ccccc2C(=O)NC2CCCC2)C1=O (stereo unspecified)
→ 4	4352	-56	-7	7	-2	0.6
[8] COC(=O)c1ccc(NC(=O)c2cc3sccc3n2C)cc1
→ 0	4180	-39	9	-13	16	7.9
[9] Cc1cccc(Oc2cc(NC(=O)c3ccccc3)cc([N+](=O)[O-])c2)c1
→ -5	4456	-5	4	-25	10	-4.2
[10] COc1cc(C=NNc2ccc([N+](=O)[O-])cc2S(=O)(=O)N2CCOCC2)cc(OC)c1OC
→ nt	nt	nt	-4	-3	1	2.3
[11] N#Cc1nc(-c2ccc(Cl)cc2)oc1NCc1cccc2c1OCO2
→ 4	19143*	-21	3	-9	1	0.7
[12] ClC1=C(Cl)C(Cl)=C(Cl)C1=C/C=C/c1ccccc1
→ 89*	4015	-21	11	-3	2	4.0
[13] C=CC[C@@H](CC(=O)N(CCO)Cc1ccccc1)C(=O)NC[C@H](OC(=O)[C@@H](CC=C)CC(=O)OC(C)(C)C)c1ccccc1
→ nt	2855	-5	-1	-3	0	0.0
[14] O=C(c1ccccc1)c1nn(-c2cccc(Cl)c2)ccc1=O
→ -3	nt	8	3	7	14	5.7
[15] Cc1cc(N2CC(C)OC(C)C2)nc(C(C)C)n1 (stereo unspecified)
→ -4	3201	-4	1	23	-2	7.4
[16] Cc1ccc(C)c(OCC(=O)NNC(=O)CCN2CCN(c3ccccc3)CC2)c1
→ nt	8649	-26	8	8	9	-1.2
[17] COc1ccc(-n2c(-c3ccc(C)cc3)n[nH]c2=S)cc1
→ -4	2098	-5	0	11	9	3.4
[18] COc1ccccc1NC(=O)CSCC(N)=O
→ 0	7664	-17	15	10	1	2.2
[19] COc1ccc(C=O)cc1Oc1nc(Cl)ncc1F
→ 2	3696	-12	0	11	5	0.2
[20] Cc1nnc(SCC(=O)NC(=O)Nc2ccc3c(c2)OCCO3)s1
→ 6	3207	-9	2	6	-2	-2.1
[21] O=S(=O)(NCc1ccco1)c1cccc(S(=O)(=O)N2CCCCC2)c1
→ -4	3960	-13	nt	-1	nt	1.7
[22] COc1ccc(NC(=O)c2c(NC(=O)CCC(=O)O)sc(-c3ccccc3)c2C)cc1
→ 0	2251	-34	3	-1	2	12
[23] CCCCCCNC(=O)c1ccc(Br)o1
→ -3	4194	-22	nt	-6	nt	5.3
[24] CCOc1ccc(CNS(=O)(=O)c2cccs2)cc1OCC
→ 5	3850	-42	-3	4	-1	6.6
[25] CC(C)(C)c1ccc(OCC(=O)NNC(=O)CCc2ccccc2)cc1
→ -10	3740	-23	-86	0	-23	-2.4
[26] CC(=O)Nc1ccc(Nc2nnc(-c3ccc(C)c(S(=O)(=O)NCC4CCCO4)c3)c3ccccc23)cc1 (stereo unspecified)
→ 15	4753	-9	13	-2	-2	2.7
[27] O=C(c1ccc([N+](=O)[O-])cc1)N1CCN=C1SCc1ccccc1
→ 1	3708	-27	13	15	5	5.3
[28] CCCCc1nnc(NC(=O)CN2C(=O)C3CCCCC3C2=O)s1 (stereo unspecified)
→ -16	6012	-4	5	3	13	4.4
[29] Cc1cccc(CNCc2ccccc2)c1
→ 10	2182	-32	11	6	3	0.1
[30] CCOC(=O)c1c(NS(=O)(=O)Cc2ccccc2)sc2c1CCCC2
→ -4	9579	-12	-4	-19	3	12
[31] COc1cccc(NC(=O)CN(C)C(=O)c2ccc(NC(=O)CC3SC(N4CCCCC4)=NC3=O)cc2)c1 (stereo unspecified)
→ 7	5634	-29	-3	5	-2	4.1
[32] CC(C)[C@H](NS(=O)(=O)c1ccccc1)C(=O)OCC(=O)N1N=C(c2ccc(Cl)cc2)CC1c1ccco1 (stereo partly specified)
→ -2	2042	-2	-1	-30	0	-10
[33] CSc1cccc(NC(=O)CCCn2c(=O)c3cccn3c3cccnc32)c1
→ 5	5903	-8	-6	-6	-1	-6.8
[34] Cn1ncc2c(Nc3ccccc3Cl)nc(Nc3ccccc3Cl)nc21
→ 15	4499	-3	-4	-26	13	-8.7
[35] CCN1CCN(CC(=O)Nc2ccc3c(c2)OCCO3)C(=O)C1=O
→ -5	4375	-13	2	10	6	1.2
[36] O=C(O)Cc1c(-c2ccccc2Cl)c2cc(Br)ccc2[nH]c1=O
→ -9	4559	nt	2	24	12	8.8
[37] CCN1C(=O)C2(Nc3ccccc3-c3nc4ccccc4n32)c2cc(OC)ccc21 (stereo unspecified)
→ 0	8642	-19	4	-7	7	-0.9
[38] CC(=NNC(=O)CC(C)C)c1ccc(N2CCCCC2)cc1
→ nt	nt	nt	5	7	15	6.1
[39] Cc1ccc(NC(=O)C[n+]2cc(-c3ccc(C)cc3)n3c2CCC3)cc1
→ -9	6274	-13	2	-10	6	-2.8
[40] Cn1c(=O)oc2cc(S(=O)(=O)N3CCN(c4ccc(F)cc4)CC3)ccc21
→ 2	3649	-20	1	21	-1	27
[41] CCCCCCSc1nnc2[nH]c(=O)cc(N)n12
→ -2	2427	-25	7	1	2	4.7
[42] Cc1ccc(/C=N/n2c(COc3ccccc3)n[nH]c2=S)s1
→ -1	9783	-26	nt	nt	nt	nt
[43] COc1ccc(OCc2nc(C#N)c(N3CCN(c4ccc(OC)cc4)CC3)o2)cc1
→ -7	5128	-6	6	7	13	2.2
[44] CCN(CC)C(=O)c1ccccc1NC(=O)c1ccccc1C
→ -4	3244	-18	-4	6	17	3.2
[45] O=C(CC(Nc1ccc(Cl)cc1)C(=O)O)c1ccccc1 (stereo unspecified)
→ -1	5235	-106	nt	0	nt	2.6
[46] Cc1cc(=O)oc2cc(NC(=O)CC3(CC(=O)O)CCCC3)ccc12
→ 1	?	-22	-2	-4	10	-2.8
[47] CCCCOC(=O)c1ccc(NC(=O)c2ccc(F)cc2F)cc1
→ -11	4217	-15	3	1	3	3.9
[48] COc1ccc(NC(=O)C2CCCN(S(=O)(=O)c3cccc4nonc34)C2)c(OC)c1 (stereo unspecified)
→ -5	2503	-7	-6	11	2	5.7
[49] CCOc1ccc(OCC)c(S(=O)(=O)NCc2cccnc2)c1
→ 13	3409	-19	5	-3	6	5.0
[50] CC(=NO)C1(C)N(O)C(C)(C)C(c2ccc(F)cc2)=[N+]1[O-] (stereo unspecified)
→ nt	nt	nt	12	3	4	6.3
[51] Cc1nc(-c2ccc(S(=O)(=O)N3CCN(c4cccc(C)c4C)CC3)cc2)co1
→ 2	4055	-18	2	17	8	5.7
[52] O=C(c1nsnc1-c1ccccc1O)N1CCCCC1
→ 12	2350	-2	nt	9	nt	-2.3
[53] CC(=O)Nc1ccc(S(=O)(=O)Nc2cccc(C(=O)Nc3ccccc3C(=O)O)c2)cc1
→ 3	3765	-13	15	6	13	2.2
[54] COCCCNC(=S)NCCNc1nc2cc(C)c(C)cc2cc1C#N
→ -6	4725	-8	-10	-4	11	2.7
[55] CCOC(=O)C1=NN(C(=O)c2ccc(OC)cc2)C(O)(c2ccc(Cl)cc2)C1 (stereo unspecified)
→ 3	2193	-27	8	-13	1	3.7
[56] N#C/C(=C\c1ccc(OCC(N)=O)cc1)S(=O)(=O)c1ccccc1
→ 0	4868	-25	-6	-6	7	1.1
[57] Cc1cc(C)c(S(C)(=O)=O)c(N(C)N)n1
→ -10	5177	-18	4	4	5	6.1
[58] CNC(=S)NN=Cc1ccc2c(c1)OCCO2
→ nt	nt	nt	-10	-5	7	5.3
[59] Cc1[nH]c2ccccc2c1C(=O)C(=O)N1CCC2(CC1)OCCO2
→ 2	4224	-11	15	2	7	5.8
[60] COc1ccc(C(=O)Nc2c(-c3cccs3)c(=O)c3ccccc3n2C)cc1
→ -6	4424	-10	3	1	4	2.8

# The list continues.
# Second line of a record: BJeLR lethal	Autofluor counter	PrP UTR inh	Mtb hypoxia rep	Sa ugtP lethal	Mtb hypoxia rep growth	RN4220 kill
[61] O=C(/C=C/c1ccccc1Cl)N(Cc1ccc(Cl)cc1)C1CCS(=O)(=O)C1 (stereo unspecified)
→ -6	2234	-32	4	-20	2	4.8
[62] N#CCCNC(=O)Cn1c(COc2ccc(Cl)cc2)nc2ccccc21
→ 21	2779	-7	6	9	3	1.8
[63] COc1ccc(C(=O)Nc2ccccc2C(=O)N/N=C/c2cccc3ccccc23)cc1
→ 10	6775	7	nt	nt	nt	nt
[64] COc1ccc2nc(COC(=O)c3cccs3)c(C(C)=O)[n+]([O-])c2c1
→ 0	3744	-17	3	0	11	13
[65] Cc1cccc(NC(=O)c2cc3c(=O)n4ccccc4nc3s2)c1
→ -16	5282	-17	-3	0	9	2.5
[66] COc1ccc(CC(=O)c2ccc(O)cc2O)cc1OC
→ 4	4294	-16	7	-2	9	4.6
[67] CCn1c(SCC(=O)Nc2ccc(C(C)=O)cc2)nc2nc3c(cc2c1=O)COC(C)(C)C3
→ 8	4543	-27	6	0	1	2.3
[68] CCOC(=O)C=C(C(=O)OCC)C(=O)OCC
→ nt	4493	13	9	-1	2	2.8
[69] O=C(c1ccccc1)c1ncc(C(F)(F)F)cc1Cl
→ -2	20699*	-53	10	-7	4	4.0
[70] CCc1nn(CC(=O)N2CC(C)CC(C)C2)c(=O)c2cccn12 (stereo unspecified)
→ -4	5957	3	7	2	-3	3.0
[71] CC(=O)Nc1ccc(Nc2c3c4c(cccc4n(C)c2=O)C(=O)c2ccccc2-3)cc1
→ 3	1891	13	nt	nt	nt	nt
[72] CC(=O)Nc1ccc(S(=O)(=O)Nc2ccc(F)c([N+](=O)[O-])c2)cc1
→ 5	2363	-12	9	3	11	7.0
[73] COc1ccc(CC(=O)NCC2CCCN(Cc3ccc(OC)cc3F)C2)cc1 (stereo unspecified)
→ -4	4424	-14	11	5	0	2.6
[74] COc1ccc2[nH]c3c(c2c1)[C@@H]1CCN2C(=O)CCC[C@H](C3)[C@H]12
→ 2	3085	-4	nt	nt	nt	nt
[75] O=S(=O)(c1ccccc1)N1CC=C(c2ccccc2)CC1
→ 13	3396	-27	4	11	1	16
[76] CC1CC(=O)N(CC(=O)NCc2ccco2)c2ccccc2S1 (stereo unspecified)
→ 1	23847*	-28	5	5	2	5.9
[77] O=C(COc1cccc2ccccc12)N/N=C/c1ccccc1OCc1ccc(C(=O)O)cc1
→ 2	5401	-27	nt	nt	nt	nt
[78] COc1ccc(NC(=O)C2CCN(S(=O)(=O)c3ccc(C)cc3)CC2)cc1OC
→ -2	25551*	-14	5	-3	-2	1.5
[79] O=C1CC(NCCN2CCOCC2)C(=O)N1Cc1ccc(N2CCCC2=O)cc1 (stereo unspecified)
→ 0	3556	-6	5	19	1	6.5
[80] CC(=O)Nc1ccc(NC(=O)C(C)OC(=O)c2ccc(OCc3c(C)noc3C)cc2)cc1 (stereo unspecified)
→ -6	10197	-16	7	2	7	2.8
[81] Cc1cccc(NC(=O)NCc2ccc3c(c2)OCO3)c1
→ 0	?	-37	nt	nt	nt	nt
[82] CC(C)(C)C(=O)N1c2ccccc2CCc2ccccc21
→ 0	3876	-5	0	6	1	4.0
[83] COc1ccccc1/C=C\C=NNC(=O)c1ccco1
→ nt	nt	nt	4	6	6	3.2
[84] Cc1noc(C)c1CSc1nnc2ccc3ccccc3n12
→ 0	22951*	-14	-10	-11	0	-3.0
[85] CC1(C)C2([N+](=O)[O-])CN3CC1([N+](=O)[O-])CN(C2)C3c1ccccn1 (stereo unspecified)
→ 3	nt	-9	-10	9	-2	4.7
[86] Cc1onc(-c2ccccc2Cl)c1C(=O)Nc1ccccc1O
→ -2	2960	-15	6	-6	-14	-2.2
[87] CCc1nnc(NC(=O)[C@@H](NS(=O)(=O)c2ccc3c(c2)OCCO3)C(C)C)s1
→ nt	4154	-10	8	4	-5	4.2
[88] O=C(Nc1ccc(S(=O)(=O)N2CCOCC2)cc1)c1ccc2c(c1)OCO2
→ 7	4061	-11	-10	4	4	6.3
